Screening results: PubChem BioAssay, National Center for Advancing Translational Sciences (NCATS)
TRPV1 potentiator: enhances activation of the human vanilloid receptor TRPV1; TRPV1-expressing cells, Fluo-8 calcium influx, capsaicin EC20 potentiation; host cell line not named in the record; control for the full effect not named in the record; potentiation, % at 8.33 µM; actives 0.02% (n = 320,000); AID 540277; active means potentiation above 80%; inconclusive means 30% to 80%; inactive means below 30%; note: 0% is about no effect
Target sequence (Q8NER1 whole entry, looked up): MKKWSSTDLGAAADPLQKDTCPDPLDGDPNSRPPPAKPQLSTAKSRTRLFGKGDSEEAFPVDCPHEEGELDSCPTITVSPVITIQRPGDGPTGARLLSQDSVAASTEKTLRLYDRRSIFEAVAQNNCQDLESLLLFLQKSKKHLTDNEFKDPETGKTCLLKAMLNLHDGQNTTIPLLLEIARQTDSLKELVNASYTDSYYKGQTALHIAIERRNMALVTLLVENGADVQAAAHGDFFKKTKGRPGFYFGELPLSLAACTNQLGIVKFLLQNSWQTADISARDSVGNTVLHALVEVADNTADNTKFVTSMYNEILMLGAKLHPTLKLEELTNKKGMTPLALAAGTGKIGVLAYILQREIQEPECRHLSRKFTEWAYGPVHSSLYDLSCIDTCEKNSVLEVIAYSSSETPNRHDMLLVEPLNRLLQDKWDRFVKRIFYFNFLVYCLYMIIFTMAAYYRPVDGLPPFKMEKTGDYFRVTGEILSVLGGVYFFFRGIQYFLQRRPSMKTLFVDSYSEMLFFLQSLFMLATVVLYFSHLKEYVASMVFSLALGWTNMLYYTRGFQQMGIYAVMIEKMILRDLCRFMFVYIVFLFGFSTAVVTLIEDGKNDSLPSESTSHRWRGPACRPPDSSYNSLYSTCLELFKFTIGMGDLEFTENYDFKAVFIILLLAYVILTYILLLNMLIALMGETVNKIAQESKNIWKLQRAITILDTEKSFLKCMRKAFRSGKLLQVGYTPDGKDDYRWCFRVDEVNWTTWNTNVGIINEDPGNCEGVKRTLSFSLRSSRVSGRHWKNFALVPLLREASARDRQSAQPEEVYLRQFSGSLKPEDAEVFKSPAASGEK
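TRPV1-expressing cells were cultured overnight at 35.5C and loaded with Fluo-8 calcium dye for 40 to 90 min at room temperature. After a 10 s baseline, compound was added and calcium influx was read kinetically for 3 min (ex 480/em 520 nm).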
gsp antagonist: antagonizes gsp, the McCune-Albright syndrome mutation. actives 0.4% (n = 340,000). Potency, µM (top dose mostly 76.9 µM), inactives show at the top dose activity change, negative = inhibition, most hits filed as inhibitors. gsp-mutant cells, cAMP HTRF, 30 min; control for the full effect not named in the record; active = falling curve of any shape with a large fitted effect; inconclusive = falling curve, mostly with a smaller effect; inactive = flat or rising curve; cell line not stated here;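 note: intracellular cAMP measured with PDE inhibitor Ro 20-1724 present during compound exposure; potency is the fitted concentration of half-maximal effect; % is set by controls: 0 for no effect and ±100 for the full control effect; nearly all actives have a fitted effect of over 65% in size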
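HTRF cAMP read-out (cAMP-d2 plus anti-cAMP antibody-K in lysis buffer, 30 min RT). Before lysis, cells are exposed to compounds with […] for 30 min at 37C in DPBS containing Ca/Mg, BSA and Tween 20.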
Sfp inh: blocks B. subtilis Sfp PPTase activity; Q9F4F7; Biochemical Sfp PPTase activity, qHTS; Potency, µM, inactives show max response, negative = inhibition, hits mostly inhibitors; actives 3.5% (n = 310,000); AID 1490; active = well fitted inhibition curve with a large enough effect; inconclusive = small, poorly fitted or top-dose-only effect, or another doubt; inactive = no such curve, though single readings can be large or run the other way;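 note: the enzyme is Sfp with the accession as filed and its product quenches rhodamine fluorescence; potency is the fitted concentration of half-maximal effect; 0% = enzyme reaction without inhibitor and -100% = no enzyme wells; top concentration of the series not given in the record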
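Reaction rates are the 30-min fluorescence difference (ex 525, em 598 nm) in wells containing 15 nM Sfp, 5 uM rhodamine-CoA and 12.5 uM BHQ-2-YbbR at pH 7.6 with 10 mM MgCl2.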
gsp ag: activates gsp, the McCune-Albright syndrome mutation; gsp mutant cells, cAMP HTRF, 30 min; control for the full effect not named in the record; Potency, µM (series often up to 76.9 µM), for inactives: at the top dose activation (cAMP increase), usual class: activators; actives 0.13% (n = 340,000); AID 624287; active = well fitted activation curve with a large enough effect; inconclusive = small, poorly fitted or top-dose-only effect, or another doubt; inactive = no such curve, though single readings can be large or run the other way; cell line not stated here;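 note: phosphodiesterase inhibitor Ro 20-1724 added with compounds to block cAMP breakdown; potency is the fitted concentration of half-maximal effect; nearly all actives have a fitted effect of over 60% in size; about a fifth of the inactives were tested at one dose only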
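Cells stably selected in G418 were plated at 2000/well, grown 16-24 hr, then given compounds in DMSO with the PDE inhibitor […] (300 uM solution added) for 30 min at 37C; cAMP was read by HTRF.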
ClpP mod: qHTS Assay for Activators of ClpP. actives 1.9% (n = 340,000). purified B. subtilis ClpP, FRET peptide cleavage, 20 min. Potency, µM (series often up to 57.5 µM), for the others: top-dose activity change, negative = active. ATP-dependent Clp protease proteolytic subunit (Bacillus subtilis (strain 168)), P80244; active = well fitted falling curve with a large enough effect; inconclusive = small, poorly fitted or top-dose-only effect; inactive = no such curve, though single readings can be large or run the other way; note: potency is the fitted concentration of half-maximal effect; the source files actives as falling curves though it sought activators and does not explain the sign; nearly all actives have a fitted effect of over 65% in size; many hits overshoot -100%
Target sequence (P80244 whole entry, looked up): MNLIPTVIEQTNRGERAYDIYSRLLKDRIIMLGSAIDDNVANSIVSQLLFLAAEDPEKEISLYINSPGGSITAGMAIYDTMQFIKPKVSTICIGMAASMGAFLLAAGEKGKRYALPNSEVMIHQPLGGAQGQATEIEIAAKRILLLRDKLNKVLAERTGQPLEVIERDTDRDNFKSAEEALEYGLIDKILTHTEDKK
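Purified B. subtilis ClpP, 10 microg/mL final in Tris/HCl pH8 with KCl, BSA, glycerol and Tween-20, cleaved an Abz/nitrotyrosine-quenched decapeptide. Fluorescence (ex 320, em 430) was read at 0 and 20 min at room temperature. Delta was normalized to 5.8 microM ADEP and DMSO/no-enzyme controls.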
Menin-MLL FL inh: inhibitors of human menin-MLL interaction, wild-type MLL peptide. Fluorescence polarization, fluorescein-MLL peptide displacement from menin. FP activity change, % at 61.4 µM. 290,000 tested, under 10 active. AID 1766; inconclusive = falling polarisation curve, or a change in total fluorescence; inactive = total fluorescence flat and polarisation flat or rising; no compound was filed as active; the % refers to the polarisation; negative = inhibition;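 note: % of control where 0% means no effect; inhibitors lower the polarisation; unlabelled MLL peptide was the positive control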
TRPML1 inh: blocks the human TRPML1 channel; Q9GZU1; TRPML1-inducible cells, Ca2+ dye fluorescence, FDSS; stronger effect = lower value; inhibition of EC80 agonist-evoked calcium signal; activity change, negative = inhibition, % (no concentration beside the values); actives 0.02% (n = 390,000); in the data active means activity change below about -50%; inconclusive means about -30% to -50%; inactive means above about -30%;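 note: stimulus is agonist 54-4 at its EC80 concentration; % is set by controls: 0 for no effect and ±100 for the full control effect; compound concentration not given in the record; the text of the record puts the active cut at -80%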
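Tet-induced TRPML1-DL cells loaded with Ca8 no-wash calcium dye were read kinetically on FDSS. Compound addition was followed by EC80 agonist 54-4 (4 uM final); inhibition was read over 110 s.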
Starred values were filed as active, the others as inactive; ? = inconclusive; · = not tested or not shown; [ ] = another dose, or the depositor's remark. Random draw from the library; overall some 4.9% were active at least once.

smiles	Menin-MLL FL inh	gsp antagonist	gsp ag	ClpP mod	TRPML1 inh	Sfp inh	TRPV1 potentiator
CN(C)c1ccc(/C=N/NC(=O)C(O)c2ccc(Br)cc2)cc1 (stereo not drawn)	-9.7	-2.5%	4.0%	4.3%	25.6	11.1%	4.1
C[C@H](NC(=O)[C@@H]1Cc2ccccc2CN1)C(=O)NCC1CCCO1 (stereo partly drawn)	·	7.6%	21.2%	0.1%	-2.6	14.1%	?
O=S1(=O)C=C(Oc2ccc3ccccc3c2)c2ccccc21	9.2	-16.0%	0.9%	-9.4%	10.0	-10.1%	4.6
O=C(c1ccc(-c2cccc(Cl)c2Cl)o1)N1CCOCC1	3.1	-6.9%	-21.0%	1.2%	-9.0	79.4µM*	-2.5
CCOc1cccc(C2/C(=C(/O)c3ccc4c(c3)CC(C)O4)C(=O)C(=O)N2CCCn2ccnc2)c1 (stereo not drawn)	-3.5	13.6%	?	-1.1%	11.6	7.9%	-11.1
Cc1ccc2c(c1)NC(=O)[C@@]1(C)[C@@H](c3ccccc3)[C@H]3COc4ccc(Cl)cc4[C@@H]3N1C2=O	·	-3.5%	21.6%	-7.7%	11.5	·	·
Cc1ccnc2nc(NC(=O)c3ccco3)nn12	-3.1	6.1%	-11.7%	-1.1%	3.2	2.1%	6.2
O=c1cc(NS(=O)(=O)c2ccccc2)nc(SCc2c(Cl)cccc2Cl)[nH]1	0.6	3.2%	2.3%	-10.0%	1.1	-15.2%	8.5
COCCn1c(SCC(=O)c2ccc(CNC(C)=O)o2)nc2ccccc2c1=O	0.8	5.8%	2.5%	0.2%	21.7	2.6%	2.3
CC(C)n1ncc2c(C(=O)NCc3cccnc3)cc(C3CC3)nc21	·	0.8%	-11.7%	4.0%	-1.2	·	1.1
CCc1cc2c(SCc3ccc(C(=O)OC)o3)ncnc2s1	-1.3	2.3%	?	·	-14.4	1.4%	-7.1
CSc1ccc(/C=N\Nc2nncn2N)cc1	-6.2	-8.8%	-53.7%[inhibitor]	-0.5%	6.6	79.4µM*	-0.3
COc1ccc(CCNC(=O)c2cccnc2SC)cc1	3.1	3.2%	-1.8%[15.4 µM]	·	-2.5	21.0%	-2.8
COc1ccc(CC(=O)Nc2cccc(C(=O)O)c2C)cc1	0.1	10.4%	9.5%	-0.9%	-21.1	-16.9%	9.8
O=C(NCc1ccco1)c1nc(-c2ccccc2)n(-c2ccccc2)n1	-0.6	-9.4%	-35.7%[inhibitor]	-0.4%	1.3	-11.4%	-27.0
COc1cccc(-c2nnc3sc(C4CCCCC4)nn23)c1	-0.2	-1.6%	1.9%	-3.9%	14.0	-10.4%	-16.5
O=C(Nc1ccc(F)cc1)Nc1nnc(Cc2ccccc2)s1	-0.5	8.4%	6.0%[15.4 µM]	-1.6%	-15.4	4.4%	2.6
O=C(NC(=S)Nc1nc2c(s1)CCCC2)c1ccc(C(=O)c2ccccc2)cc1	3.5	-1.7%	-10.1%	-1.9%	-21.9	-11.0%	-9.4
CCc1ccc(C(=O)N2CCN(c3ccc(NC(=O)c4cccnc4)cc3)CC2)cc1	·	-2.8%	3.0%[15.4 µM]	-1.3%	8.7	-7.6%	15.3
O=C(CNC1CCN(Cc2ccccc2)CC1)Nc1ccc(S(=O)(=O)N2CCCCC2)cc1	4.4	9.6%	-10.6%	-2.0%	2.7	0.5%	2.1
Cc1nc(SCC(=O)Nc2c(C)n(C)n(-c3ccccc3)c2=O)nc(C)c1C	0.7	-0.7%	49.0%	-2.1%	-7.1	11.9%	4.8
CN1CCN(CCC(=O)Nc2ccc(F)c(F)c2)CC1	-0.2	4.0%	-13.2%	-3.0%	-3.7	10.7%	-0.7
Cc1ccc(S(=O)(=O)n2[nH]c(=O)c(CCO)c2C)cc1	-1.3	5.1%	-21.7%	·	-12.6	15.6%	-0.8
CCOC(=O)c1[nH]c(C)c(C(=O)Nc2ccccc2F)c1C	2.9	-10.0%	-18.5%	0.3%	10.9	7.1%	-15.6
Cc1noc(NS(=O)(=O)c2ccc(NC(=O)COc3ccccc3)cc2)c1C	1.6	1.4%	19.4%	-0.2%	7.2	10.1%	9.0
Cc1ccnc(N2CCC(C(=O)NCc3ccc4c(c3)OCO4)CC2)n1	1.9	33.7%[activator]	31.2%	?	24.2	8.1%	-1.3
CC1CCCCN1c1nnc(NC(=O)c2cc(-c3ccc(Br)cc3)on2)s1 (stereo not drawn)	9.4	-12.5%	-52.6%[inhibitor]	1.3%	-17.4	16.2%	12.2
Cc1cc(C)n(-c2ccc(Cl)c(C(=O)Nc3cc(C(F)(F)F)ccc3Cl)n2)n1	1.0	1.9%	-17.0%	1.9%	-10.5	3.1%	2.2
O=C(COc1ccccc1)N1CCN(S(=O)(=O)c2cccc([N+](=O)[O-])c2)CC1	-5.1	1.2%	-4.7%[15.4 µM]	·	-8.5	3.7%	-9.7
O=C(NCc1ccco1)C(=O)c1c[nH]c2ccccc12	0.2	-0.1%	-272.0%[inhibitor]	0.9%	-27.8	16.0%	8.5
COc1ccc(-c2cc(=O)oc3cc(OC(C)C(=O)NC(Cc4c[nH]c5ccc(O)cc45)C(=O)O)ccc23)cc1 (stereo not drawn)	-1.4	4.0%	·	-8.1%	·	-3.8%	29.1
COc1ccc(CCN=Cc2ccccc2O)cc1OC	0.8	11.2%	-4.9%[15.4 µM]	·	-6.9	4.0%	9.5
O=C1c2ccccc2C(=O)N1Cc1nc2ccccc2c(=O)n1Cc1ccco1	2.2	7.6%	1.2%	1.2%	26.7	10.0%	·
FC(F)(F)c1cc(-c2cccs2)nc(NCc2ccco2)n1	-1.3	1.4%	10.6%	?	20.7	14.9%	-3.0
O=C(NCCN1CCN(c2ccccc2)CC1)C1CCCN(S(=O)(=O)c2cnc[nH]2)C1 (stereo not drawn)	3.4	8.9%	?	-1.7%	-22.8	3.5%	·
O=C(COC(=O)[C@@H]1CC(O)CN1S(=O)(=O)c1ccc2c(c1)OCCO2)NCc1ccc(F)cc1 (stereo partly drawn)	0.5	2.3%	-26.9%	·	8.5	-4.0%	-5.5
O=C(NC1CCCC1)C(c1ccccn1)N(C(=O)c1csnn1)C1CCCC1 (stereo not drawn)	2.8	7.8%	1.8%	-2.4%	-6.4	21.4%	7.1
Nc1c(C(=O)NCc2ccco2)nnn1CC(=O)Nc1ccc2c(c1)OCO2	-1.6	3.1%	-8.4%	0.5%	4.5	4.8%	-2.1
COc1cc(OC)c2c(c1C(CCN1CCCC(C)C1)c1ccc(N(C)C)cc1)OC(=O)CC2c1ccc(N(C)C)cc1 (stereo not drawn)	2.7	·	·	·	-19.7	-25.4%	·
Cc1ccc(S(=O)(=O)N(C)c2c(C)ccc(S(=O)(=O)NC(C)(C)C)c2C)cc1	-1.5	-6.9%	-2.2%[15.4 µM]	·	52.6	14.2%	6.2
COc1cc(CN2CCN(C(=O)CC(C)C)CC2)c([N+](=O)[O-])cc1OC	-1.0	-1.0%	-31.7%[inhibitor]	·	23.4	?	0.7
CCN1CCCC1CNC(=O)c1ccc2c(=O)n(CCOC)c(=O)[nH]c2c1 (stereo not drawn)	-2.4	-15.0%	-16.6%	31.6µM*	5.6	11.0%	6.6
O=C(NC1CCCC1)c1cc(S(=O)(=O)N2CCOCC2)c(Cl)cc1Cl	-2.0	-10.0%	-1.7%[15.4 µM]	·	-4.7	-1.8%	-9.0
COc1ccccc1NC(=O)CSc1nc2ccccc2c(=O)n1CC1CCCO1 (stereo not drawn)	0.7	·	-16.5%[15.4 µM]	·	-7.0	1.8%	-7.9
c1ccc(-c2nc3ccccc3nc2-c2ccccn2)nc1	-2.2	9.0%	-29.1%	-7.5%	5.7	-14.1%	-1.1
CCCCN1C(=O)C(CC(=O)NCc2cccc3ccccc23)CC(C(=O)N(CC)CC)=C1C (stereo not drawn)	·	·	-89.9%[inhibitor]	1.8%	35.5	·	·
COc1cccc(OC)c1C(=O)OCC(=O)NC(=O)NCc1ccccc1	-2.7	-27.6%	-20.4%[15.4 µM]	·	7.6	6.0%	2.4
Cc1cc(C(=O)OCC(=O)c2c(N)n(C)c(=O)n(C)c2=O)c(C)n1-c1ccccc1	6.6	7.8%	?	-2.5%	5.1	2.5%	7.7
Nc1ccccc1S(=O)(=O)c1ccccc1N	2.8	-0.7%	?	-0.6%	24.9	12.5%	-5.9
COc1ccc(Cl)cc1NC(=O)C1CC(=O)N(C2CCCCC2)C1 (stereo not drawn)	2.9	9.1%	-9.2%	1.3%	1.9	18.1%	8.5
CC1(C)N=C(N)NC(Nc2ccccc2)=N1	-4.0	15.9%	22.1%	0.5%	-9.2	14.5%	-11.1
Cc1cc(Cl)c2ccc3ccccc3c2n1	0.3	-7.1%	21.2%[15.4 µM]	·	-5.0	2.3%	1.5
